Bfl-1 A1 inh – inhibitors of the anti-apoptotic protein A1, read as caspase activation | MEF A1-2A-BIM cells, Caspase-Glo 3/7 luminescence, 3 h; percent of clofoctol response, vehicle zero | hit rate 0.066% among 330,000 | caspase activation, % (no concentration beside the values);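 active means over half of replicate activation scores above 10%, or exactly half above 10 with the replicate mean above 10; inconclusive means replicate mean below 10 yet half the replicates above 10; inactive means over half of replicates below 10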;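 further: wells of about 30 µL received 50 nL stock; many hits fall short of the cut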
LANA-H2A inh – blocks KSHV LANA binding to histone H2A/H2B | cell-free LANA-H2A/H2B peptide, fluorescence polarization | inhibition, % (concentration not given with the values) | hit rate 0.6% among 320,000 | AID 2629; in the data active means inhibition mostly above about 10%, no sharp cut-off; inactive means mostly below about 6.7%;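 further: stock transfer was 7.5 nL into about 10 µL; 0% = median of vehicle wells and 100% = median of positive control wells; one replicate is shown; the record names a cut of 25% in any replicate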
Target sequence (Q9QR71 whole entry, looked up): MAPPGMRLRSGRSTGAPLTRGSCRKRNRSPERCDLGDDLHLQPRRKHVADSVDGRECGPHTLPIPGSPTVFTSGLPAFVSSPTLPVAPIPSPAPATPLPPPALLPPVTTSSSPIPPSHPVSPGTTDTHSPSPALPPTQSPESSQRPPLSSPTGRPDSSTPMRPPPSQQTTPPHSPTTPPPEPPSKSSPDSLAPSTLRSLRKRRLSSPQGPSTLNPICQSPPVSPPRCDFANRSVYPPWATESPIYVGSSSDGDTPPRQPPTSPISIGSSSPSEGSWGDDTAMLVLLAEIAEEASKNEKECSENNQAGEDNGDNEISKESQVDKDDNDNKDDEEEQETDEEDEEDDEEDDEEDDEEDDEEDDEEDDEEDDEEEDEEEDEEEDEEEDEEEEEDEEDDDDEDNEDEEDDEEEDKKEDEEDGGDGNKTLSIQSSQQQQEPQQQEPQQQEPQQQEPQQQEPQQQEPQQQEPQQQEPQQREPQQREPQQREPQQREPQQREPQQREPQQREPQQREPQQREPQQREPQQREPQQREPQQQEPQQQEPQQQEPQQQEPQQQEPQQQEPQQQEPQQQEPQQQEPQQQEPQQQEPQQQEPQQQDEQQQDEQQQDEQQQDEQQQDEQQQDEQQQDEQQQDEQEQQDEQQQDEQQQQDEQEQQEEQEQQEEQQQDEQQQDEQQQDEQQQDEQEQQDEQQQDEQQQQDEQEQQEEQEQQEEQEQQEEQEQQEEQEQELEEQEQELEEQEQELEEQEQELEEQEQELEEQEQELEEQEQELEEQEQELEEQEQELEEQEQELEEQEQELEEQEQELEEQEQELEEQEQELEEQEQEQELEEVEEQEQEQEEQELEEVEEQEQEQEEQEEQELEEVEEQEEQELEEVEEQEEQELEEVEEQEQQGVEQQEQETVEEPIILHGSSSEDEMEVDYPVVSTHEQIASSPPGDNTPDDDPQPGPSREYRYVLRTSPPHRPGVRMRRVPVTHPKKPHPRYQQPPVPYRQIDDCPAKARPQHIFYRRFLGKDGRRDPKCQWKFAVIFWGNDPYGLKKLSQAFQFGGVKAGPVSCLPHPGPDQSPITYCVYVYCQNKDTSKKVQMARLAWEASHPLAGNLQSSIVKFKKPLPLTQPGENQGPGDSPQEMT
T cruzi repl – blocks replication of Trypanosoma cruzi; T. cruzi beta-gal in NIH3T3, luminescence, 90 h; inhibition, % (concentration not given with the values); hit rate 1.4% among 300,000;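 active means mean inhibition across valid replicates above about 55%, limit read from the data; inconclusive means mean below that limit but half or more replicates reach it; inactive means mean below it, under half of replicates reach it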;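 further: signal also drops with host cell toxicity which is not excluded here; 0% = plate median of DMSO wells and 100% = zero luminescence signal; higher percent means less beta-gal luminescence so fewer parasites; stock transfer was 50 nL into about 50 µL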
Beta2AR agonist – activates human beta-2 adrenergic receptor causing internalization. P07550. Am2.2-beta2AR cells, FAP receptor internalization, flow cytometry; reference of the scale not given here. response, % (concentration not given with the values). hit rate 0.43% among 340,000;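 active means response above a set limit, near 3 SD of response in nonfluorescent compounds, cut at about 42% in these data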;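 further: stock transfer was 100 nL into about 11 µL; a reference agonist was the positive control; negative values mostly stem from fluorescent compounds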
UCH37 inh – blocks the human deubiquitinase UCH37. inhibition, % (no concentration beside the values). hit rate 0.33% among 330,000. AID 588478. purified proteasome/UCH37, Ub-AMC cleavage fluorescence. Q9Y5K5;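 active means mean of two replicates above 20%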;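 further: 0% = compound-free wells with enzyme and 100% = wells lacking proteasome; stock transfer was 100 nL into about 20 µL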
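Material: human UCH37 enzyme supplied as purified proteasome complex / Amount: 0.15 nM proteasome as dispensed / Buffer or medium: pH 7.4 Tris-HCl (50 mM) with ovalbumin, ATP-MgCl2, DTT / Times: preincubation 30 min, reaction 25 min, room temperature / Technique: AMC fluorescence from Ub-AMC cleavage, excitation 355 nm, emission 460 nm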
Beta apoptosis – beta cell apoptosis inhibition. INS-1E cytokine-induced death, ATP luminescence, 48 h; percent of positive-control rescue, neutral wells zero. protection from apoptosis, % (concentration not given with the values). hit rate 0.8% among 300,000;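 active means all replicates at 75% or more, or half of them and the mean; inconclusive means half reach 75% but not the mean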;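 further: 0% = cytokine-treated negative control wells and 100% = positive control rescue; higher means more ATP so stronger rescue from cytokine killing; wells of about 40 µL received 100 nL stock; the first replicate is given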
Calb FLC – C. albicans growth modulation with fluconazole | C. albicans CaCi-2 (fluconazole-resistant clinical isolate) + fluconazole, Alamar Blue growth, 48 h | growth inhibition, % (test concentration not listed) | hit rate 0.57% among 300,000 | AID 1979;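 active means most replicates above 75%; inconclusive means exactly half above 75%; inactive means most below 75%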;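 further: all wells also contain fluconazole at 8 µg/ml as a sub-toxic cotreatment; 0% = median of DMSO wells and 100% = median of geldanamycin control wells; wells of about 8 µL received 7.5 nL stock; the first replicate is given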
RanGTP-Imp inh – inhibitors of RanGTP-importin-beta interaction, primary screen, biochemical, FRET, CFP-Ran, YFP-importin-beta, homogeneous; cell-free CFP-Ran/YFP-importin-beta FRET ratio; inhibition, % (test concentration not listed); hit rate 1.1% among 300,000;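 active means most replicates above 15%; inconclusive means exactly half above 15%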;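 further: 0% = DMSO wells and 100% = Ran loaded with GDP instead of GTP; wells of about 40 µL received 100 nL stock; the first replicate is given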
Numbers without * were called inactive; u = inconclusive; x = not tested or not shown.

molecule,RanGTP-Imp inh,Bfl-1 A1 inh,Beta apoptosis,UCH37 inh,T cruzi repl,LANA-H2A inh,Calb FLC,Beta2AR agonist
CCCCCCCCCCn1c2c(c(=N)c3c1CCC3)CCC2,-0.5,-0.8,118*,11,68*,3.0,107*,13
COc1ccc(S(=O)(=O)N2CCCN(CCC(=O)Nc3cccc(C(F)(F)F)c3)CC2)cc1,x,-0.3,x,4.6,x,-0.9,x,-1
COc1cc2[nH]c(=O)n(Cc3ccccc3Cl)c(=O)c2cc1OC,-3.6,0.5,2,3.5,-8,-0.8,11,1
CN1C(=S)SC(C)(NO)C1(C)C (stereo not given),u,-0.5,-6,-0.3,2,-0.6,-15,-8
CCc1nc(SCC(=O)N2CCC(C)CC2)c2c(=O)n(C)c(=O)n(C)c2n1,2.4,0.5,2,1.0,15,2.1,1,-2
O=S(=O)(Nc1ccncc1)c1ccc(Cl)cc1,4.4,0.1,-3,-0.1,-10,1.1,-13,7
Clc1ccc(-c2csc(N/N=C/c3ccc4c(c3)OCO4)n2)cc1,-1.4,-0.6,-1,x,35,11,13,-3
Cc1ccc(C(=O)N2C(=S)C(c3ccc(F)cc3)=NC23CCN(C)CC3)cc1,3.9,-0.1,3,9.8,19,-1.8,-3,22
O=C(CSCc1ccc(Br)cc1)Nc1ccccc1C(=O)N1CCOCC1,-0.2,0.2,0,1.5,7,5.3,2,-1
CCOC(=O)C1CCN(C(=O)COC(=O)c2nn(C)c(=O)c3ccccc23)CC1,-1.1,1.0,4,1.8,-19,-2.3,1,0
COc1nc(Nc2ccc([N+](=O)[O-])cc2)nc(NC2CCCCC2)n1,1.6,1.4,27,2.2,42,3.3,-12,-13
CCC(C)NC(=S)Nc1ccc(F)cc1 (stereo not given),0.9,0.1,-4,3.4,-5,6.5,-2,9
Cc1[nH]oc(=O)c1N=Nc1ccc2[nH]c(=O)[nH]c2c1,-0.5,-1.1,-7,19,19,1.5,-3,-2
CCOc1ccc(/C(O)=C2\C(=O)C(=O)N(CCN(C)C)C2c2cccc(OC)c2OC)cc1Cl (stereo not given),-1.2,0.5,-5,5.8,-11,0.6,6,-5
O=C(Nc1ccc(Cl)cc1)c1cc2nc(C3CC3)cc(C(F)(F)F)n2n1,-3.8,0.0,-4,-228,0,1.9,6,-6
CN(C)c1ccc(N2[C@@H](CC(=O)O)c3cc(C(F)(F)F)ccc3S2(=O)=O)cc1,1.0,0.7,x,0.1,12,2.8,1,0
CCn1c(C)cc(O)c(C(=O)Nc2cccc(Cl)c2)c1=O,-2.8,0.0,3,1.6,-13,-2.0,-17,1
Cc1cc(C)cc(NC(=O)CCC(=O)Nc2cc(C)on2)c1,3.0,1.3,-12,1.7,13,1.0,33,-6
CCOC(=O)C(O)(CC(=O)Nc1cc(F)ccc1C)C(F)(F)F (stereo not given),4.7,0.9,-1,-1.2,-5,-1.6,-4,3
Nc1cc(-c2ccc(Cl)cc2)nn1S(=O)(=O)c1cccc2nsnc12,8.7,0.7,5,2.5,25,-0.6,4,-4
CCN(C(=O)COC(=O)c1ccc([N+](=O)[O-])o1)c1cccc2ccccc12,x,0.1,0,5.7,x,-9.1,x,-3
CCOC(=O)/C(N=Nc1ccc(Cl)cc1)=C(/O)c1ccc([N+](=O)[O-])cc1,-1.1,-0.7,7,1.8,2,1.3,13,0
O=C(CC(=O)N/N=C/c1c(F)cccc1Cl)NCc1ccccc1,-2.1,-0.2,-2,x,-10,-3.3,26,x
CC(C)CC(=O)NC(=S)Nc1ccccc1F,-1.9,-0.3,-5,2.5,-14,-6.9,1,4
C[C@@H]1NC(=O)[C@@]2(C)[C@@H](c3ccccc3)[C@H]3COc4ccc(Cl)cc4[C@@H]3N2C1=O,x,0.7,-3,2.6,x,2.1,x,-7

The list goes on:
molecule,RanGTP-Imp inh,Bfl-1 A1 inh,Beta apoptosis,UCH37 inh,T cruzi repl,LANA-H2A inh,Calb FLC,Beta2AR agonist
C[C@H]1COc2c(C3(N)CC3)c(F)cc3c(=O)c(C(=O)O)cn1c23,5.5,0.3,-1,x,-21,4.0,x,x
O=C(Cn1cnc2c(cnn2-c2ccc(F)cc2)c1=O)N1CCN(c2ccccc2)CC1,-1.4,x,x,1.9,-5,x,-6,0
CC1(C)C/C(=N\NC(=S)Nc2ccccc2F)c2cc(O)ccc2O1,2.3,-0.1,9,x,-13,8.3,15,-3
O=C(/C=C/c1cccs1)N1CCN(Cc2ccc3c(c2)OCO3)CC1,3.6,-1.5,-4,8.9,-7,-0.4,-4,-17
Cc1ccc(OCC(=O)NNC(=O)CSc2nnc(-c3ccc(C)cc3)n2C)cc1,0.9,-0.1,-3,0.5,-25,-0.5,22,-5
O=C1CCCC/C1=N\Nc1ccc(C2CCCCC2)cc1,3.6,-1.0,0,x,8,5.2,-32,x
CCN(C(=O)CSc1ncccc1C(=O)Oc1cccc([N+](=O)[O-])c1)c1cccc(C)c1,-1.4,0.5,-11,5.6,-5,-7.6,0,19
Cc1ccc(NC(=O)CSCC(=O)Nc2cc(Cl)ccc2N2CCN(C)CC2)cc1,3.7,1.0,x,4.5,26,-1.5,-18,20
CN(Cc1cn(-c2ccccc2)nc1-c1ccc2c(c1)OCO2)Cc1nccn1C,-2.9,0.4,6,5.4,9,-7.3,-2,-13
CCO[C@@H]1OC(C(=O)NCc2nc3ccccc3[nH]2)=C[C@H](c2ccc(C(F)(F)F)cc2)[C@H]1CCCO,6.7,-0.1,-1,1.6,16,0.5,11,-7
CC(=O)c1ccc(C(=O)N2CCCC(CNC(=O)c3ccccc3Cl)C2)cc1 (stereo not given),-1.3,0.7,x,0.4,-7,-1.9,5,-2
CCN1CCN(c2oc(-c3ccco3)nc2C#N)CC1,0.7,-0.3,x,-16,17,2.8,0,-4
O=[N+]([O-])c1cccc(OCC(O)CN2CCN(S(=O)(=O)c3cc(Cl)ccc3Cl)CC2)c1 (stereo not given),0.9,-0.2,11,3.0,27,5.3,-4,-3
CCC(C)C(NC(=O)C1CCC(=O)N1C(=O)OCc1ccccc1)C(=O)NC(Cc1ccccc1)C(N)=O (stereo not given),3.7,0.3,-2,4.6,-7,3.5,-12,7
COc1ccc(NC(=O)COC(=O)CCc2cc(OC)c(OC)c(OC)c2)c([N+](=O)[O-])c1,u,-0.4,-6,4.5,-7,-1.1,-8,-4
CSCCC(C(=O)N1CC2(C)CC1CC(C)(C)C2)N1C(=O)c2ccccc2C1=O (stereo not given),-18,-0.5,-4,0.3,-5,0.4,-10,8
Cc1ccc(-c2onc(C)c2C)cc1S(=O)(=O)N1CCOc2ccccc21,5.6,0.2,17,1.7,15,-3.8,21,-8
COc1ccc(C(=O)OCCc2sc[n+](CC(=O)c3ccccc3)c2C)cc1,2.4,1.1,-13,0.6,13,-2.0,-9,-6
CC(Sc1nc2cc([N+](=O)[O-])ccc2n1-c1ccc(F)cc1)C(=O)NCc1ccc2c(c1)OCO2 (stereo not given),1.5,0.5,6,0.7,3,-3.4,-5,10
CCOC(=O)CSC1=C(C#N)C(c2ccc(C)o2)CC(=O)N1 (stereo not given),-1.4,0.2,28,4.1,-6,0.1,1,52*
O=C(O)c1cccc(Nc2nc3ccccc3nc2NS(=O)(=O)c2ccc(F)cc2)c1,x,-0.2,-4,7.6,x,5.3,x,1
COc1cccc(CNC(=O)CCC2CCCN(c3cc(C)nc(N(C)C)n3)C2)c1 (stereo not given),0.7,-0.2,-1,6.9,28,-9.0,-9,0
CCCOc1ccccc1/C=C1\SC(N)=NC1=O,7.8,0.7,-16,2.0,2,1.6,0,11
COc1ccc(CCN2C(=O)CS/C2=N/NC(=O)c2ccccc2F)cc1OC,-2.4,0.0,4,x,3,-7.1,-14,3
Cc1cccc(C)c1NC(=O)CNC(=O)c1ccc(S(=O)(=O)NCc2ccco2)cc1,x,-1.1,-6,-0.2,x,-2.7,x,-5

Further structures
molecule,RanGTP-Imp inh,Bfl-1 A1 inh,Beta apoptosis,UCH37 inh,T cruzi repl,LANA-H2A inh,Calb FLC,Beta2AR agonist
CCOc1ccc(Cl)cc1S(=O)(=O)N1CCC(C(=O)N2CCCC2)CC1,-1.5,-0.7,-3,1.2,9,0.7,-4,9
CCCn1c(=N)n(CC(O)c2ccco2)c2ccccc21 (stereo not given),3.4,0.0,1,0.2,-6,5.7,-7,-2
CCC1Oc2ccc(C)cc2N(CC(=O)N(Cc2cccnc2)Cc2cccc(F)c2)C1=O (stereo not given),-7.6,0.9,2,1.8,59*,0.6,14,-1
CCn1ccnc1CN1CCCCC1C(=O)Nc1ccc(Oc2cccnc2)cc1 (stereo not given),1.8,0.0,-2,3.0,-5,-4.1,-4,-15
N/C(=N\OS(=O)(=O)c1ccc(Cl)cc1)c1ccncc1,-0.4,0.2,-2,3.2,-8,-1.0,-10,-6
CC(=O)N1CCN(c2ccc([N+](=O)[O-])cc2C#N)CC1,2.3,0.8,0,10,3,-9.1,4,0
O=C(/C=C/c1ccc(-c2ccccc2)cc1)NCc1cccnc1,3.1,-0.1,98*,-6.9,36,1.5,5,14
CCn1ccnc1C(O)c1cccc(OC)c1OC (stereo not given),-4.1,0.1,x,5.7,0,0.2,-8,3
CCCCNC(=O)CCCn1c(=O)c2ccccc2n(CC(=O)NCCC2=CCCCC2)c1=O,2.9,x,x,11,4,x,-9,-1
CCCCN1CCNC1=S,-0.3,0.5,1,3.7,6,0.4,-3,-5
CCOc1ccc(Br)cc1C1=CC(=O)C[C@H](c2ccc(OC)cc2)C1,x,0.9,9,2.6,x,0.6,x,3
CC(C)Sc1nc2c(c(=O)[nH]c(=O)n2C)n1C,2.1,-0.1,0,0.8,-10,-2.0,9,-1
COC(=O)c1ccc(COc2cccc3c2OC(C)(C)C3)cc1,-0.2,-0.4,-8,1.1,11,-14,52,-4
Cc1ccc(-c2nnc(Nc3ccc(CC(N)=O)cc3)c3ccccc23)cc1,-1.5,0.6,x,-3.9,60*,2.9,-10,10
COc1ccc(CNCc2cccc(Cl)c2)cc1,2.0,0.9,x,4.6,1,0.5,-9,10
C=CCN(C(=O)CNC(=O)c1ccco1)C(C(=O)NC1CCCCC1)c1ccc(F)cc1 (stereo not given),-3.6,0.4,-4,-0.5,-11,-16,3,-11
Cn1c(=O)c2c(ncn2CC(=O)N2CCN(c3ccccc3)CC2)n(C)c1=O,5.8,1.3,-6,-0.3,3,1.5,-1,6
O=C(NCCc1ccc(Cl)cc1)c1ccc(CS(=O)Cc2ccc(Cl)cc2)o1 (stereo not given),3.6,0.6,2,1.3,15,-1.0,-2,-10
Cc1ccc(N/C(N)=N/c2nc(C)cc(C)n2)cc1,3.2,0.5,-4,-0.6,32,x,-13,-4
Cc1ccc(C)c(OCC(=O)Nc2ccccc2N2CCCC2)c1,0.4,-0.1,x,0.1,21,-2.0,-3,-5
